UCH37 DUB inh: inhibitors of human UCH37 deubiquitinase, primary screen, biochemical, Ub-AMC cleavage, fluorescence; Ubiquitin carboxyl-terminal hydrolase isozyme L5 (Homo sapiens), Q9Y5K5; purified proteasome/UCH37; inhibition, % (concentration not given with the values); 330,000 tested, 0.33% active; AID 588478, 2011;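 active = mean of two replicates above 20%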;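 also: 0% = compound-free wells with enzyme and 100% = wells lacking proteasome; stock transfer was 100 nL into about 20 µL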
Target sequence (Q9Y5K5 whole entry, looked up): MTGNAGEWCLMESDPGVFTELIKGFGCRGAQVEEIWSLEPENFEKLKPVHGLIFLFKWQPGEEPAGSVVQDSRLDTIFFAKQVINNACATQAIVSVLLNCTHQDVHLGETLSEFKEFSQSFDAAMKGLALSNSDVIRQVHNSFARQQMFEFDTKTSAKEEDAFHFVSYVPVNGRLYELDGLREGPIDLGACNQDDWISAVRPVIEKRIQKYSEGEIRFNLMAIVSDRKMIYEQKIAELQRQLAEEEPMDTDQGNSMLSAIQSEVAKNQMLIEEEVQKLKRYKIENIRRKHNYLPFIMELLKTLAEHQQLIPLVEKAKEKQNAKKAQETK
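Reagent: Ub-AMC substrate; assay system: Proteasome-associated human UCH37 deubiquitinase; controls: no-proteasome and no-compound wells; read-out: % inhibition of Ub-AMC cleavage fluorescence; timing: 30 min preincubation with enzyme, 25 min cleavage at room temperature; signal: AMC fluorescence from Ub-AMC cleavage, excitation 355 nm, emission 460 nm; buffer or medium: Tris-HCl pH 7.4 plus ovalbumin, ATP-MgCl2, DTT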
Beta2AR agonist: beta2AR agonists driving receptor internalization, primary screen, cell-based, FAP fluorogen, flow cytometry | Beta-2 adrenergic receptor (Homo sapiens), P07550 | Am2.2-beta2AR cells; reference of the scale not given here | response, % (test concentration not listed) | 340,000 tested, 0.43% active | AID 504454, 2011;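 active = response above a set limit, near 3 SD of response in nonfluorescent compounds, cut at about 42% in these data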;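 also: stock transfer was 100 nL into about 11 µL; a reference agonist was the positive control; negative values mostly stem from fluorescent compounds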
Target sequence (P07550 whole entry, looked up): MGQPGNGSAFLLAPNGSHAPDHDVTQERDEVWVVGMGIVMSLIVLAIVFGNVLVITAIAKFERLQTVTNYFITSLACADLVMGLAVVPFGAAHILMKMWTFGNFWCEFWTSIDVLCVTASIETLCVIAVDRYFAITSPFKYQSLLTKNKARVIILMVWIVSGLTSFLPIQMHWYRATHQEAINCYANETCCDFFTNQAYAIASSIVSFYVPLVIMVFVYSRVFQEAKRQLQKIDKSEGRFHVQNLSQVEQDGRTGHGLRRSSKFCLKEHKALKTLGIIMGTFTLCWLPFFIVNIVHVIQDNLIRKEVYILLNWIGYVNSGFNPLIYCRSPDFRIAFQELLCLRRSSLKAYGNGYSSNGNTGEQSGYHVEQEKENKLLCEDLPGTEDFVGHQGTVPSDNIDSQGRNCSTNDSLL
RanGTP-Impb inh: inhibitors of RanGTP-importin-beta interaction, primary screen, biochemical, FRET, CFP-Ran, YFP-importin-beta, homogeneous. 300,000 tested, 1.1% active. AID 2216, 2009. inhibition, % (test concentration not listed). cell-free CFP-Ran/YFP-importin-beta FRET ratio;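 active = most replicates above 15%; inconclusive = exactly half above 15%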;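 also: 0% = DMSO wells and 100% = Ran loaded with GDP instead of GTP; wells of about 40 µL received 100 nL stock; the first replicate is given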
A1 inh: caspase 3/7 activation in MEF A1-2A-BIM cells, primary screen, A1 inhibitor project, cell-based, luminescence, HTS. Caspase-Glo 3/7 luminescence, 3 h; percent of clofoctol response, vehicle zero. caspase activation, % (concentration not given with the values). 330,000 tested, 0.066% active;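 active = over half of replicate activation scores above 10%, or exactly half above 10 with the replicate mean above 10; inconclusive = replicate mean below 10 yet half the replicates above 10; inactive = over half of replicates below 10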;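 also: wells of about 30 µL received 50 nL stock; many hits fall short of the cut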
Calb FLC: C. albicans growth inhibition with fluconazole, primary screen, CaCi-2 strain, Alamar Blue fluorescence; C. albicans CaCi-2 (fluconazole-resistant clinical isolate) + fluconazole, 48 h; growth inhibition, % (test concentration not listed); 300,000 tested, 0.57% active; AID 1979, 2009;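 active = most replicates above 75%; inconclusive = exactly half above 75%; inactive = most below 75%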;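 also: all wells also contain fluconazole at 8 µg/ml as a sub-toxic cotreatment; 0% = median of DMSO wells and 100% = median of geldanamycin control wells; wells of about 8 µL received 7.5 nL stock; the first replicate is given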
T cruzi repl: inhibitors of intracellular T. cruzi growth, primary screen, luminescence, NIH3T3 host cells. AID 1885, 2009. 300,000 tested, 1.4% active. inhibition, % (no concentration beside the values). T. cruzi beta-gal in NIH3T3, 90 h;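 active = mean inhibition across valid replicates above about 55%, limit read from the data; inconclusive = mean below that limit but half or more replicates reach it; inactive = mean below it, under half of replicates reach it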;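 also: signal also drops with host cell toxicity which is not excluded here; 0% = plate median of DMSO wells and 100% = zero luminescence signal; higher percent means less beta-gal luminescence so fewer parasites; stock transfer was 50 nL into about 50 µL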
Beta apoptosis: inhibitors of cytokine-induced beta cell apoptosis, primary screen, luminescence | INS-1E cytokine-induced death, ATP luminescence, 48 h; percent of positive-control rescue, neutral wells zero | 300,000 tested, 0.8% active | protection from apoptosis, % (test concentration not listed) | AID 435005, 2010;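 active = all replicates at 75% or more, or half of them and the mean; inconclusive = half reach 75% but not the mean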;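 also: 0% = cytokine-treated negative control wells and 100% = positive control rescue; higher means more ATP so stronger rescue from cytokine killing; wells of about 40 µL received 100 nL stock; the first replicate is given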
LANA-H2A inh: blockers of LANA interaction with H2A/H2B – biochemical, FP readout, HTS, primary screen. Protein LANA1 (Human herpesvirus 8 type P (isolate GK18)), Q9QR71. cell-free LANA-H2A/H2B peptide, fluorescence polarization. inhibition, % (no concentration beside the values). 320,000 tested, 0.6% active; in the data active = inhibition mostly above about 10%, no sharp cut-off; inactive = mostly below about 6.7%;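 also: stock transfer was 7.5 nL into about 10 µL; 0% = median of vehicle wells and 100% = median of positive control wells; one replicate is shown; the record names a cut of 25% in any replicate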
Starred values were filed as active, the others as inactive; ? = inconclusive; / = no result given. Rows were taken by chance, and some 4.3% of all compounds hit somewhere here.

SMILES	UCH37 DUB inh	Beta2AR agonist	RanGTP-Impb inh	A1 inh	Calb FLC	T cruzi repl	Beta apoptosis	LANA-H2A inh
O=C(CSc1ccccc1F)NC(=O)NCc1ccco1	-1.4	-5	-0.8	-0.8	5	-4	-1	1.5
COc1ccc(N2CCN(C(CNS(C)(=O)=O)c3ccco3)CC2)cc1 (stereo not given)	-0.4	8	0.2	0.0	30	-4	-5	-3.7
CCOC(=O)c1cnn(-c2nc(CC)nc3sc4c(c23)CCC4)c1N	1.6	4	1.8	-0.3	22	-20	-3	3.6
CC(C)(C)C1(O)CC(C(F)(F)F)=NN1C(=O)CCCc1ccccc1 (stereo not given)	2.8	3	0.5	0.4	-18	-1	2	-1.7
CCOC(=O)c1ccc(NC(=O)NCc2ccccn2)cc1	-1.1	-3	3.3	-0.1	6	6	-3	-4.5
Cc1ccc(S(=O)(=O)N(C)CC(=O)N2CCc3ccccc32)cc1	3.1	-3	-2.4	0.4	8	-10	1	3.0
O=C1/C(=C/c2cccs2)N=C(c2cccs2)N1Nc1ccccc1	2.9	9	0.5	0.0	-4	22	0	6.3
O=C(NCc1ccccc1)c1cc(=O)[nH]c2ccccc12	-32	-6	-2.2	0.8	5	-8	-1	-5.0
CCOc1ccc(NC(=O)c2ccco2)c([N+](=O)[O-])c1	3.6	-10	-0.1	-0.9	-14	-5	0	0.0
COCCNc1nnc(SCC(=O)Nc2nnc(-c3ccccc3)o2)s1	4.4	2	-1.3	-0.6	-1	-3	/	5.5
Cc1ccc(-c2nc(NCC3CCCO3)sc2C)cc1 (stereo not given)	0.6	-1	-5.0	-0.1	-25	30	-3	-2.8
COCCCNC(NC(=O)c1ccc(OC)cc1)C(Cl)(Cl)Cl (stereo not given)	-2.3	0	0.5	0.6	-9	-21	6	4.1
O=C(COC(=O)c1ccc(O)cc1)Nc1ccc2c(c1)OCO2	-1.5	-1	/	-0.4	/	/	-2	-4.9
NC(=O)C1CCCN(C(=O)c2cccc(S(=O)(=O)N(Cc3ccccc3)c3ccccc3)c2)C1 (stereo not given)	3.0	-10	/	-0.3	/	/	-2	6.0
Cc1ccc2c(Cl)cc(Cl)c(OCC(=O)Nc3ccc(C)c(S(=O)(=O)N(C)C)c3)c2n1	/	/	-0.8	-0.2	-18	22	2	-1.2
CCOC(=O)C1CCN(C(=O)COC(=O)CSc2ccc(C(N)=O)cc2[N+](=O)[O-])CC1	2.8	0	-0.5	0.7	0	-3	-2	-1.9
O=C(Nc1ccccc1)N1CCCC1	-1.0	6	-1.2	-0.5	2	-4	1	-1.1
Cc1ccsc1/C=N/Nc1nc(=O)[nH]nc1C	/	-1	-0.5	-6.5	6	4	62	-8.0
CCCCn1c(=O)[nH]c(=O)c2c1nc(-c1ccncc1)n2CCOC	-9.9	0	6.5	-0.9	-9	-3	-2	9.5
CCc1cccc(CC)c1N(COC)C(=O)Cn1nnc2ccccc21	2.5	1	2.8	0.2	5	/	-4	-7.3
Cc1ncc([N+](=O)[O-])n1Cc1cccc2ccccc12	6.1	9	0.1	3.1	0	3	8	1.3
Cc1ccc(NC(=O)CN(C)C(=O)c2ccc(COc3ccccc3)cc2)cc1	-1.2	-2	2.7	-1.0	1	1	-7	4.1
Cc1cnc(C(=O)OCC(=O)N2c3ccccc3CC2C)cn1 (stereo not given)	0.5	0	-0.2	-0.1	-5	-6	3	0.3
CCn1c(NC(=O)Nc2ccccc2OC)nc2ccccc21	-1.3	4	0.9	1.4	?	-13	9	-1.3
Cc1ccc(S(=O)(=O)N2CCCOC2CNC(=O)C(=O)NCc2cccnc2)cc1 (stereo not given)	3.3	0	1.8	-0.2	4	-16	10	-5.6
O=C(NC1CC1)C1CCCN1C(=O)NC1CCCCC1 (stereo not given)	4.1	-5	1.6	-0.9	-2	-2	-3	-1.9
CCCCOc1ccc(C(=O)NCC(=O)NCc2ccncc2)cc1	/	-6	-2.3	-0.4	5	6	-6	1.1
Cc1nc2ccccn2c1C(=O)NN=C1C2CC3CC(C2)CC1C3	4.5	4	-0.9	-0.2	-7	-2	1	0.3
CCOC(=O)c1c[nH]c(=S)n(-c2ccccc2)c1=O	4.5	-2	1.2	0.3	-4	-8	2	-2.0
O=C(CN1C(=O)NC2(CCOc3ccccc32)C1=O)N1CCCCC1 (stereo not given)	2.4	-1	/	-0.2	/	/	-9	4.5
COc1ccc(NC(=O)CSc2nccn2Cc2ccco2)cc1	6.5	0	7.9	0.3	-3	1	-3	2.8
CCOc1ccc(S(=O)(=O)NCCC(=O)OC(C)C(=O)N2CCc3ccccc32)cc1 (stereo not given)	2.9	2	-2.8	1.0	9	-9	-2	-0.2
O=C(CCCN1C(=O)/C(=C/c2cccs2)SC1=S)Nc1cccnc1	4.3	24	0.6	0.1	8	24	-13	-25
Cc1nc2ccc(-n3ccc(=O)cc3)cc2s1	2.6	-6	7.5	0.6	3	11	0	3.0
Cc1ccc(S(=O)(=O)N(C)CCCC(=O)NCc2ccc3c(c2)OCO3)cc1	5.6	-10	1.1	-0.3	-39	8	-6	4.1
CCOc1ccccc1N1CCN(S(=O)(=O)c2cccc3nsnc23)CC1	3.8	-1	-2.1	0.7	-26	-7	0	4.6
CC(Oc1ccc2c(c1)oc(=O)c1ccccc12)C(=O)NCCCN1CCOCC1 (stereo not given)	-165	-9	-0.6	-1.0	0	-1	/	-2.2
CS(=O)(=O)N(Cc1ccco1)CC(O)Cn1c2ccccc2c2ccccc21 (stereo not given)	0.0	13	2.8	0.8	-1	-1	7	4.3
Cc1cc(S(=O)(=O)N2CCCC2)ccc1OCC(=O)NC1CCCC1	0.8	-1	-0.7	0.0	-9	8	-6	2.2
NC(=O)C1CCN(C(=O)/C=C/c2cccc(Br)c2)CC1	4.8	0	-0.1	0.5	-5	-12	-8	-0.6
Cc1ccc(C23OC(=O)C(C)(C)C2OC(=O)C3(C)C)cc1 (stereo not given)	3.0	-1	-3.0	0.5	-2	6	-6	8.1
CCn1c2ccccc2c2cc(C3C(C#N)=C(C)NC(C)=C3C#N)ccc21	-174	17	7.2	0.7	-3	21	/	5.3
CC1CCN(C(=O)COC(=O)CCc2c[nH]c3ccccc23)CC1	4.1	-4	2.1	-0.7	-8	-13	-1	-2.3
CC1(C)CC(=O)C2=C(C1)OC(N)=C(C#N)C21CCN(C(=O)OCc2ccccc2)CC1	1.1	11	1.3	0.0	22	-17	1	3.8
Cc1ccc(OCC(=O)Nc2nnc(S(=O)(=O)N3CCCCCC3)s2)cc1C	-0.9	4	-0.2	-0.1	-1	3	-14	2.7
O=C1NC2(CCCCC2)C(=O)N1Cc1ccc([N+](=O)[O-])cc1	4.0	2	-4.9	0.3	-27	12	-2	4.8
Cc1ccc(N2CC(C(=O)OCC(=O)Nc3ccccc3C)CC2=O)cc1 (stereo not given)	-1.0	-4	/	-0.2	/	/	0	-0.4
CC(C)(C)OC(=O)C(Cl)(C(=O)OC(C)(C)C)c1ccc2nnnn2n1	0.1	8	3.1	/	44	27	/	/
COc1ccccc1C(=O)NC(=O)CSc1nnc2ccccn12	-2.4	1	/	-1.0	/	/	2	-6.5
COc1ccc(OC)c(S(=O)(=O)NC(N)=NCCc2ccccc2)c1	-0.6	-1	0.6	0.3	-33	10	-5	5.8
COc1ccc(NC(=O)Cc2ccc(-c3ccccc3)cc2)cn1	4.4	-3	1.9	-0.1	10	0	5	0.4
O=C(c1ccc(Cl)c(S(=O)(=O)N2CCCC2)c1)N1CCN(c2ccccc2)CC1	2.2	4	-4.2	0.5	-12	4	0	5.4
O=C(NCc1cc(C(F)(F)F)cc(C(F)(F)F)c1)C1CC(c2ccccc2C(F)(F)F)=NO1 (stereo not given)	2.9	/	5.2	1.7	13	34	3	-0.2
CC(C)(C)n1nnnc1C(c1ccccc1F)N1CCN(C(=O)c2ccco2)CC1 (stereo not given)	4.9	-4	-1.2	0.0	1	-9	-4	5.3
C=CCn1cc(C(=O)NCCCN(CC)CC)c(=O)c2cc(S(=O)(=O)N3CCC(C)CC3)ccc21	4.7	4	-1.2	0.6	-6	20	-1	-2.6
CC(C)n1cc(NC(=O)C2CC(c3cccc(Br)c3)=NO2)cn1 (stereo not given)	1.1	0	1.4	-0.3	-18	-14	-1	-1.6
CNC(=O)CSc1cn(CC(=O)N(C(C)C)C(C)C)c2ccccc12	0.3	-3	1.6	0.2	20	1	-3	1.7
COc1ccc(-n2nc(C(=O)O)c3ccccc3c2=O)c(OC)c1	1.4	3	6.4	0.2	-2	-1	0	0.6
O=C(Nc1nnc(-c2ccc(Br)cc2)o1)C1=COCCO1	3.5	4	-2.7	-0.8	37	-22	-5	-12
Fc1ccc(-c2nnc(CSc3nnc4ccccn34)o2)cc1	-0.5	-3	-0.5	-0.2	0	2	2	-11

The listing continues:
SMILES	UCH37 DUB inh	Beta2AR agonist	RanGTP-Impb inh	A1 inh	Calb FLC	T cruzi repl	Beta apoptosis	LANA-H2A inh
CC(C)c1ccc(SCc2noc(C(=O)NCC3CCCO3)c2C(=O)O)cc1 (stereo not given)	0.9	4	9.9	-1.7	-16	-17	-5	4.4
COc1ccc(C2CC(C)(c3ccc(OC)cc3)Nc3ccccc3N2)cc1 (stereo not given)	3.0	-3	0.1	0.0	5	29	9	-1.8
c1ccc(-c2nn3c(-c4ccccc4)nnc3s2)cc1	2.1	-1	-2.9	0.2	4	3	4	6.7
COc1cc(NC(=O)CCN2C(=O)NC3(CCCC3)C2=O)c(OC)cc1Cl	-0.8	-11	/	-0.2	/	/	-4	-4.7
COc1ccc(Nc2c3c(nc4ccc(C)cc24)CCC3)cc1	7.0	7	2.5	0.3	-28	30	38	1.3
O=C(CCCSc1nc2ccccc2[nH]1)Nc1ccccc1	1.8	-4	-3.8	0.1	-8	2	-1	2.1
Cc1ccc(C(=O)OCC(=O)NCc2ccco2)cc1	6.1	-10	-0.6	-0.5	-6	-11	-2	-3.1
CSc1ccc(C2=CC(=O)C[C@H](c3ccc(Cl)cc3)C2)cc1	-5.0	-9	/	-0.9	/	/	-7	0.9
COC(=O)COc1ccc(S(=O)(=O)NCc2ccncc2)cc1	-0.3	2	1.0	-0.7	-1	-5	-1	4.3
OCCOCCn1c(C2CCCN2c2nc(-c3ccc(F)cc3)cs2)nc2cc(C(F)(F)F)ccc21 (stereo not given)	3.2	-3	-3.1	0.7	12	16	0	-2.3
Cc1ccc(S(=O)(=O)N2CCC(C(=O)NNC(=O)c3ccccc3O)CC2)cc1	-17	13	-0.6	1.9	3	9	/	-2.8

Compound activity: PubChem BioAssay, several laboratories
